Calb FLC: C. albicans growth modulation with fluconazole. C. albicans CaCi-2 (fluconazole-resistant clinical isolate) + fluconazole, Alamar Blue growth, 48 h. growth inhibition, % (concentration not given with the values). 0.57% of 300,000 active. AID 1979;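 active = most replicates above 75%; inconclusive = exactly half above 75%; inactive = most below 75%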;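 also: all wells also contain fluconazole at 8 µg/ml as a sub-toxic cotreatment; 0% = median of DMSO wells and 100% = median of geldanamycin control wells; wells of about 8 µL received 7.5 nL stock; the first replicate is given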
RanGTP-Imp inh: inhibitors of RanGTP-importin-beta interaction, primary screen, biochemical, FRET, CFP-Ran, YFP-importin-beta, homogeneous; inhibition, % (no concentration beside the values); AID 2216; cell-free CFP-Ran/YFP-importin-beta FRET ratio; 1.1% of 300,000 active;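 active = most replicates above 15%; inconclusive = exactly half above 15%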;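 also: 0% = DMSO wells and 100% = Ran loaded with GDP instead of GTP; wells of about 40 µL received 100 nL stock; the first replicate is given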
HNF4A DNA FP: change in binding of human HNF4 alpha to DNA. P41235. HNF4a-FITC DNA binding, fluorescence polarization, 1 h. activity change, % at 10 µM. 0.3% of 360,000 active; in the data active = activity change above about 30%, passing the limit was not always enough;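 also: controls were the assay level and a saturating level of protein; the project sought stronger binding though the title names inhibitors; some compounds called inactive have numbers as strong as hits; positive values seem to mean higher polarization but the record does not say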
Target sequence (P41235 whole entry, looked up): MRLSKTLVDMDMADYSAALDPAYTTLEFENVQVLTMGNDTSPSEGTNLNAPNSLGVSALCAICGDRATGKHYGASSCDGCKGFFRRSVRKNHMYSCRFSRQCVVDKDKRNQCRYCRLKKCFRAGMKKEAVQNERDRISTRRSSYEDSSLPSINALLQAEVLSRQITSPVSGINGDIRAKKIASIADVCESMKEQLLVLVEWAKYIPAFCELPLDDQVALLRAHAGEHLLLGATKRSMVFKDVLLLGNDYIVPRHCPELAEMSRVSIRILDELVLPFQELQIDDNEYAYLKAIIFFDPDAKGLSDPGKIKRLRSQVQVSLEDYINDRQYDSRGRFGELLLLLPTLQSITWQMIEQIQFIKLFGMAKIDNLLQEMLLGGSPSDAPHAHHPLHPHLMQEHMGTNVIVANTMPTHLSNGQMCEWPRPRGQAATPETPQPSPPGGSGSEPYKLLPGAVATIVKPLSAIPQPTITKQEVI
ALR H2O2 inh: human ALR oxidase inhibition via reduced H2O2. P55789. purified ALR, DTT oxidation, H2O2 HRP-luminol luminescence. 3.8% of 290,000 active. inhibition, % (no concentration beside the values). AID 485317;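 active = mean and each replicate at 75% or more; inconclusive = only one of the two met; inactive = neither met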;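 also: stock transfer was 7.5 nL into about 7.5 µL; 0% = neutral wells and 100% = wells with inactivated enzyme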
Target sequence (P55789 whole entry, looked up): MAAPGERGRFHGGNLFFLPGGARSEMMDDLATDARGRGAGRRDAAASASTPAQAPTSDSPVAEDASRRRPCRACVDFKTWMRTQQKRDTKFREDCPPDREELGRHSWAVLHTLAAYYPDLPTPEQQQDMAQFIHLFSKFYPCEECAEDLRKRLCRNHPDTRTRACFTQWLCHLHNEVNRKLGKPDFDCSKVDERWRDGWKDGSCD
LANA-H2B inh: blocks KSHV LANA binding to histone H2A/H2B. cell-free LANA-H2A/H2B peptide, fluorescence polarization. inhibition, % (no concentration beside the values). 0.6% of 320,000 active. AID 2629; in the data active = inhibition mostly above about 10%, no sharp cut-off; inactive = mostly below about 6.7%;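 also: stock transfer was 7.5 nL into about 10 µL; 0% = median of vehicle wells and 100% = median of positive control wells; one replicate is shown; the record names a cut of 25% in any replicate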
Vif A3G: HIV-1 Vif–A3G interaction blockers – biochemical, TR-FRET, GST-Vif 1-94, biotin-A3G peptide, dose response retest, primary screen (AID 1117319). TR-FRET GST-Vif / biotin-A3G peptide binding; higher % means a stronger effect; test concentration not given here; strong numbers were not always called active. inhibition, %, or IC50 in µM where a hit was titrated. 0.57% of 260,000 active;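 active = above the screen mean plus three standard deviations and confirmed in dose response; inconclusive = results disagree or hit not tested in dose response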;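 also: Vif residues 1-94 fused to GST binding biotinylated APOBEC3G peptide 110-148; 0% = full assay without inhibitor and 100% = GST in place of GST-Vif; retest series ran down from 100 µM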
B2AR ag: agonists of human beta-2 adrenergic receptor inducing internalization. P07550. Am2.2-beta2AR cells, FAP receptor internalization, flow cytometry; reference of the scale not given here. response, % (concentration not given with the values). 0.43% of 340,000 active;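 active = response above a set limit, near 3 SD of response in nonfluorescent compounds, cut at about 42% in these data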;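 also: stock transfer was 100 nL into about 11 µL; a reference agonist was the positive control; negative values mostly stem from fluorescent compounds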
Target sequence (P07550 whole entry, looked up): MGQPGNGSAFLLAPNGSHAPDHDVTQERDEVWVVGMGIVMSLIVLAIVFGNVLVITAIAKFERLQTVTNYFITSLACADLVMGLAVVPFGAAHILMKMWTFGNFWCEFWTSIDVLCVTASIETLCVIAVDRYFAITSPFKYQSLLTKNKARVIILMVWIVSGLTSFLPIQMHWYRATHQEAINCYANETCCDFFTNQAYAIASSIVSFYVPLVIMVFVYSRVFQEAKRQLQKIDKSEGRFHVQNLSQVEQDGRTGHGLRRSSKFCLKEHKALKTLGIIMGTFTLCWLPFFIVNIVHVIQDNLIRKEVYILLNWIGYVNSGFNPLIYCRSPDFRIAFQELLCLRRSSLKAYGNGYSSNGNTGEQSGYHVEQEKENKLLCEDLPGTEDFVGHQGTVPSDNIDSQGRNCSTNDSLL
The depositor's hits bear a star; ? = inconclusive; . = no result given; & = joins results of further samples.

SMILES	Calb FLC	RanGTP-Imp inh	HNF4A DNA FP	ALR H2O2 inh	LANA-H2B inh	Vif A3G	B2AR ag
O=C(c1n[nH]c2ccccc12)N1CCN(c2ccc(F)cc2)CC1	18.6	-1.6	0.1	.	-5.8	-4.2%	-2.5
COc1ccc(OC)c(S(=O)(=O)N/N=C\c2cn(CC(N)=O)c3ccccc23)c1	0.5	9.1	-0.9	28.3	2.6	0.5%	7.6
Cc1nc2cc(NC(=O)NCc3ccc4c(c3)OCO4)ccc2o1	1.9	7.0	0.3	-5.2	1.2	3.2%	-7.1
CCc1nc2ccccc2c(C(=O)OCC(=O)N2CC(C)OC(C)C2)c1C (stereo not given)	2.6	-2.7	-1.0	-27.1	-2.7	-0.7%	-0.9
Clc1ccc(Oc2nc(Oc3ccc(Cl)cc3)nc(N3CCOCC3)n2)cc1	12.6	1.0	6.1	-5.2	8.0	3.1%	-2.5
Cc1noc(C(=O)NCc2ccc(F)cc2)c1Cl	1.8	0.5	-1.3	.	-2.0	-2.1%	6.6
COc1ccc(C)cc1NC(=O)COC(=O)CCC(=O)c1cccs1	.	.	0.6	.	5.3	79.5%	0.6
Fc1cc(F)c(F)c(SCn2cc(Br)cn2)c1F	.	.	0.2	.	.	5.2%	12.2
CC1(C)Oc2ccc3ccc(=O)oc3c2/C(=C/NCCO)C1=O	2.3	2.3	2.6	10.9	0.1	-3.9%	-2.0
Oc1ccc(Br)cc1/C=N/n1c(COc2ccccc2)n[nH]c1=S	-15.8	-1.0	-3.3	62.3	5.3	23.7%	1.4
Cc1ccc(-n2c(=O)c3sccc3n(Cc3cc(=O)n4ccccc4n3)c2=O)cc1	0.3	5.1	-4.1	1.4	2.8	-8.5%	-3.6
COc1cccc(-c2ccnc3[nH]n(-c4ccccc4)c(=O)c23)c1	29.4	0.2	3.0	-2.2	1.4	.	-4.0
Cc1c(NC(=O)C(C)OC(=O)CC2Sc3ccccc3NC2=O)c(=O)n(-c2ccccc2)n1C (stereo not given)	5.3	3.3	2.0	-1.1	3.4	-3.5%	-6.6
CCCN(C(=O)c1cn(CC)c2nc(C)ccc2c1=O)c1c(N)n(Cc2ccccc2)c(=O)[nH]c1=O	-13.0	-2.3	-1.4	-5.0	0.4	.	-2.3
Cc1cc(C)cc(NC(=S)N(CCN(C)C)Cc2cccs2)c1	0.7	2.6	0.4	5.2	-7.0	21.0%	-2.3
NS(=O)(=O)c1ccc(CCNc2nc(CN3CCOCC3)nc3sc4c(c23)CCC4)cc1	27.7	-3.0	3.2	-0.5	4.4	-7.5%	-4.6
CCCCOP(=O)(c1ccc(N(C)C)cc1)C(O)c1cc(OC)c(OC)c(OC)c1 (stereo not given)	-0.6	2.1	-2.9	-16.3	-2.3	-4.7%	-8.6
CC(NC(=O)COc1ccc(Br)cc1)C1CCCO1 (stereo not given)	-1.8	-0.8	3.6	-1.2	-0.2	.	-1.4
CCCCNC(=S)NNC(=O)c1ccoc1C	5.4	0.6	-1.0	.	4.0	2.9%	7.7
CCCCCCCCCCCC(=O)NC(Cc1ccc(OC)c([N+](=O)[O-])c1)C(=O)O (stereo not given)	0.0	3.2	-2.3	35.9	-4.4	5.9%	-0.5
CC(=O)N1CCN(S(=O)(=O)c2cccc(C(=O)Nc3nccs3)c2)CC1	2.6	?	-1.5	25.2	5.8	7.4%	-4.6
Cc1ccccc1OCCC(=O)Nc1cccc(S(=O)(=O)Nc2ccccc2Cl)c1	32.8	-5.3	-2.5	-5.4	1.3	.	5.2
Cc1ccc(NC(=O)CCN2CCCCC2)cc1	-3.5	-0.3	-1.1	-5.3	2.0	2.4%	1.9
CC(C(=O)Nc1ccc(F)c(F)c1F)N1CCCCCC1 (stereo not given)	0.1	3.7	1.0	-6.3	2.3	64.0%	-9.3
Cc1cccc(C(=O)NNC(=O)c2ccc(S(=O)(=O)N3CCOCC3)cc2)c1	-7.3	0.4	-1.6	.	-2.0	.	6.1

One compound at a time (already shown). Screens in order: Calb FLC	RanGTP-Imp inh	HNF4A DNA FP	ALR H2O2 inh	LANA-H2B inh	Vif A3G	B2AR ag
Shown for `CCCCNC(=S)NNC(=O)c1ccoc1C` = 5.4	0.6	-1.0	.	4.0	2.9%	7.7
Shown for `Fc1cc(F)c(F)c(SCn2cc(Br)cn2)c1F` = .	.	0.2	.	.	5.2%	12.2

The listing picks up, repeating the 2 entries before the break.
SMILES	Calb FLC	RanGTP-Imp inh	HNF4A DNA FP	ALR H2O2 inh	LANA-H2B inh	Vif A3G	B2AR ag
CC(C(=O)Nc1ccc(F)c(F)c1F)N1CCCCCC1 (stereo not given)	0.1	3.7	1.0	-6.3	2.3	64.0%	-9.3
Cc1cccc(C(=O)NNC(=O)c2ccc(S(=O)(=O)N3CCOCC3)cc2)c1	-7.3	0.4	-1.6	.	-2.0	.	6.1
C=CCN1C(=O)C(Cc2ccc(SC(F)F)cc2)SC1=Nc1ccc(C(=O)O)cc1 (stereo not given)	-2.1	-3.3	7.8	28.5	-1.3	-8.1%	12.9
COc1cc2cc(/C=C/C(=O)c3ccco3)c(Cl)nc2cc1OC	-8.1	-0.9	15.6	.	3.0	3.2%	-35.1
Cc1cnc(C(=O)N2CCCC(N3CCN(c4ccccc4C)CC3)C2)cn1 (stereo not given)	-1.5	?	-1.4	7.8	-2.0	.	-1.4
COc1ccc(CC(=O)N2CCN=C2SCc2ccc([N+](=O)[O-])cc2)cc1	-47.8	3.0	-1.2	99.2*	-0.2	-0.5%	-3.2
COc1ccc2c(CC(=O)Nc3ncc(C)s3)coc2c1	-0.6	3.4	2.5	8.3	-1.2	.	-2.1
CCOc1ccccc1N=C1NC(=O)CS1	-3.4	1.3	17.7	-4.8	0.9	?	1.8
CCN(CC)CCN1C(=O)C(=O)/C(=C(/O)c2c(C)[nH]c(C(=O)OC)c2C)C1c1ccc(OC)cc1 (stereo not given)	?	0.0	0.8	1.4	-4.6	-6.0%&29.0%	2.5
O=C(CCCn1c(=O)[nH]c2cc(Cl)ccc2c1=O)NC1CCCCCCC1	-8.3	-0.4	-0.8	-7.9	0.6	2.2%	-17.2
CC(C)(C)C1CCC(OCC(O)CN2CCCC2)CC1 (stereo not given)	-34.0	2.7	3.1	2.0	3.0	5.6%	0.2
C#CC[N+]1(CC#Cc2ccccc2)CCOCC1	-7.9	-0.3	0.1	-8.0	-5.8	5.7%	-7.7
O=C(NCCNCCO)C1(C(F)(F)F)C/C(=C\Cc2ccccc2)CCCO1 (stereo not given)	-2.0	3.0	-1.5	-1.0	-2.6	.	2.4
Cc1ccc(C(=O)N2CCN(C(=O)c3ccccc3)C2c2ccc(N(C)C)cc2)cc1 (stereo not given)	-1.5	1.8	0.7	.	0.3	.	-8.8
CCc1cccc(C)c1NC(=O)CSc1nnc(C)o1	-1.0	6.6	-1.1	-11.6	-2.0	3.0%	-1.1
O=C(CSc1ncn[nH]1)NNC(=O)c1ccccc1	-2.2	5.2	-0.9	-0.4	0.4	8.9%	-9.2
NC(=O)c1cc(S(=O)(=O)N2CCOCC2)ccc1N1CCCC1	-2.9	-1.6	0.8	-4.6	2.7	0.6%	-14.3
CC(=O)c1c(COC(=O)c2ccc(Cl)cc2)nc2ccccc2[n+]1[O-]	0.0	4.3	4.8	-13.9	10.3	.	-4.1
COc1ccccc1CNS(=O)(=O)c1cccc2nsnc12	25.1	3.6	1.0	-0.8	-6.9	-0.2%	1.0
COCc1nc2ccccc2n1CCc1ccccc1	0.8	0.9	-2.0	0.6	-2.8	.	7.9
CCN(CC(=O)NCc1ccc(F)cc1)C(=O)c1ccc(COc2ccccc2)cc1	-4.0	-3.6	-0.3	2.0	-12.9	-3.4%	-2.9
O=C(Nc1ccc(Cl)cc1)C1C2CCC3C(CCC21)C3(Cl)Cl (stereo not given)	.	.	3.1	.	.	-2.7%	8.4
Cc1ccc(-c2nnn3c2nc(Cl)c2ccccc23)cc1	6.6	1.2	18.9	.	.	-9.1%	14.2
O=C(CSc1nnc(CNC(=O)c2cccc(C(F)(F)F)c2)o1)NC1CCCC1	-5.6	6.1	4.1	-13.5	-12.5	-5.0%	-5.4
Nn1c(CN2CCCCC2)nc2ccccc2c1=O	-7.0	0.5	-3.2	-6.0	4.6	2.1%	-3.6
O=C(O)c1cccc(NC(=S)NC(NC(=O)c2ccccc2[N+](=O)[O-])C(Cl)(Cl)Cl)c1 (stereo not given)	.	.	-2.4	2.5	3.4	3.3%	6.1
COc1cccc(-c2nn(Cc3ccccc3)cc2CO)c1	11.5	?	-2.6	39.5	2.2	.	-3.0

The list goes on:
SMILES	Calb FLC	RanGTP-Imp inh	HNF4A DNA FP	ALR H2O2 inh	LANA-H2B inh	Vif A3G	B2AR ag
CC1(C(=O)O)CC(C)(C(=O)O)CC(C)(C(=O)O)C1 (stereo not given)	-18.6	0.3	2.0	2.2	1.9	2.5%	8.0
O=C(NC1CCCCCC1)C1CCCN(c2ncccn2)C1 (stereo not given)	2.5	-2.0	-2.6	-0.7	0.0	.	14.5
COc1ccccc1-c1nnc2n1N=C(c1ccc(OC(F)F)c(OCC3CC3)c1)CS2	.	.	-4.0	0.9	9.3	.	-6.4
CCC(=O)Oc1ccc(-c2nc(-c3cccnc3)no2)cc1	-27.7	3.5	-1.7	-12.8	-0.1	31.9%	-16.3
COc1ccc(OCc2cc(C(=O)N3CCCC(CO)C3)no2)c2ccccc12 (stereo not given)	12.6	2.2	2.1	-22.0	1.9	.	1.1
Nc1ccc(O)c2ccccc12	-1.1	4.5	.	?	-2.8	.	.
Cc1[nH]nc2c1C1(CCC(c3ccccc3)CC1)C(C#N)=C(N)O2 (stereo not given)	-2.0	-2.4	4.3	20.3	8.6	-0.7%	25.9
COC(=O)CCCC1=CC2=CC(=O)C(C)(OC(=O)c3cccs3)C(=O)C2=CN1c1ccccc1 (stereo not given)	19.5	-2.1	0.6	.	0.2	.	-4.1
COc1ccc(S(=O)(=O)N(C)C[C@H]2Oc3ccc(NC(=O)NC4CCCCC4)cc3C(=O)N([C@H](C)CO)C[C@@H]2C)cc1	.	.	1.5	-2.3	-2.2	.	-3.0
CCCCC1(CC)C(=O)NC(=O)NC1=Nc1ccc(OC)cc1 (stereo not given)	-19.2	-5.0	1.3	-7.2	0.7	2.6%	1.8
COc1cc(NC(=O)Cc2ccccc2OC)cc(OC)c1	37.3	-5.0	-1.7	-2.5	3.9	-5.7%	-2.3
COc1cc(NC2c3ccccc3C(=O)N2Cc2ccc3c(c2)OCO3)cc(OC)c1OC (stereo not given)	-0.3	11.0	4.3	51.9	1.2	0.6%	1.6
CCc1cccc(C)c1NC(=O)Nc1c(Br)cnn1C	-2.8	1.2	1.5	.	-6.5	-8.6%	6.6
C=CCN(c1cccc(C(F)(F)F)c1)S(=O)(=O)c1cccc(C(=O)OCC(=O)Nc2ccccc2)c1	5.4	-2.7	2.7	-6.3	1.9	.	0.3
COC(=O)c1ccccc1Oc1c(F)c(F)nc(N2CCOCC2)c1F	-14.9	-0.1	0.1	-16.3	-0.9	6.4%	2.1
Cc1ccc2[nH]c(CN3CCC(CO)(CC4CCCCO4)CC3)c(C)c2c1 (stereo not given)	-7.8	2.5	-1.0	-3.8	0.9	2.2%	-6.7
CCN1CCN(CCCOc2ccc(-c3ccccc3)cc2)CC1	-20.1	2.9	.	-4.4	-2.2	-2.3%	.
OC(CNCc1ccccc1F)COc1cccc2ccccc12 (stereo not given)	-13.3	3.6	-0.2	.	-0.5	.	1.8
CC(NC(=O)c1ccc(NC(=O)CC2SC(N3CCCC3)=NC2=O)cc1)c1ccccc1 (stereo not given)	.	.	2.3	-2.3	5.0	-4.8%	2.0
CCCn1c(N)c(N(CCOC)C(=O)CSc2ccccc2)c(=O)[nH]c1=O	.	.	5.1	-6.5	1.9	3.9%	1.6
O=c1[nH]c2ccc(Br)cc2c(-c2ccccc2)c1CN1CCOCC1	0.4	?	-5.2	10.7	-1.7	3.7%	-6.0

Screens (PubChem)
